Screening data as filed in PubChem.
TRPML1 blocker – blocks the human TRPML1 channel | AID 624415 | activity change, negative = inhibition, % (concentration not given with the values) | 390,000 compounds, 0.02% hits | TRPML1-inducible cells, Ca2+ dye fluorescence, FDSS; hits give low values; inhibition of EC80 agonist-evoked calcium signal; in the data active means activity change below about -50%; inconclusive means about -30% to -50%; inactive means above about -30%;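 further: stimulus is agonist 54-4 at its EC80 concentration; on the % scale 0 is the no-effect control and ±100 the full control effect; the text of the record puts the active cut at -80%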
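Calcium fluorescence in TRPML1-DL cells induced overnight with Tet: a 110 s read after compound pin addition, then a 110 s antagonist read after challenge with 54-4 at 4 uM final (EC80).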
PINK1 expr mod – changes PINK1 expression. PINK1 immunofluorescence, high-content cytometry, 24 h. Potency, µM (top dose mostly 76.6 µM), for the others: at the highest dose activation (PINK1 increase), actives largely listed as activators. 410,000 compounds, 0.2% hits; active = well fitted activation curve with a large enough effect; inconclusive = small, poorly fitted or top-dose-only effect; inactive = flat fitted curve, though single readings scatter; cell line not stated here;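 further: potency means the concentration at half of the fitted maximal effect; % of control where 0% means no effect; nearly all actives have a fitted effect of over 65% in size; a mitochondrial uncoupler was the plate control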
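Cells are seeded, rested 12 hours, then given compound at five concentrations or DMSO for 24 hours. After fixation, blocking and antibody staining, PINK1 amount and mitochondrial localization are scored; CCCP serves as control.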
TRPML1 agonist – activates the human TRPML1 channel. TRPML1-expressing cells, Ca2+ dye fluorescence, FDSS; host cell line not named in the record; reference of the full effect not given here. activation, % (test concentration not listed). 410,000 compounds, 0.12% hits. Q9GZU1; in the data active = activation above about 50%; inconclusive = about 30% to 50%; inactive = below about 30%; further: 0% is about no effect; the text of the record puts the active cut at 80%
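Agonist activity was taken from a 110 s kinetic Ca2+ dye read on the FDSS after pinning compounds onto TRPML1-DL cells. The cells were seeded at 1,500/well with Tet inducer, incubated about 16 h, then dye-loaded at room temperature.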
ClpP mod – qHTS Assay for Activators of ClpP; ATP-dependent Clp protease proteolytic subunit (Bacillus subtilis (strain 168)), P80244; purified B. subtilis ClpP, FRET peptide cleavage, 20 min; Potency, µM (top dose mostly 57.5 µM), without a hit: top-dose activity change, negative = active; 340,000 compounds, 1.9% hits; AID 651965, 2013; active = well fitted falling curve with a large enough effect; inconclusive = small, poorly fitted or top-dose-only effect; inactive = no such curve, though single readings can be large or run the other way; further: potency means the concentration at half of the fitted maximal effect; the source files actives as falling curves though it sought activators and does not explain the sign; nearly all actives have a fitted effect of over 65% in size; many hits overshoot -100%
Target sequence (P80244 whole entry, looked up): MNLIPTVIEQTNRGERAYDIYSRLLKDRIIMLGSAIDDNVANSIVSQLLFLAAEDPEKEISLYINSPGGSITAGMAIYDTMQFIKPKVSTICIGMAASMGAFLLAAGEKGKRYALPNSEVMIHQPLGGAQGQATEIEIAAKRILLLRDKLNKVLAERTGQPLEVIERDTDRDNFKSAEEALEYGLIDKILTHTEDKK
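Purified B. subtilis ClpP, 10 microg/mL final in Tris/HCl pH8 with KCl, BSA, glycerol and Tween-20, cleaved an Abz/nitrotyrosine-quenched decapeptide. Fluorescence (ex 320, em 430) was read at 0 and 20 min at room temperature. Delta was normalized to 5.8 microM ADEP and DMSO/no-enzyme controls.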
TRPV1 PAM – human TRPV1 potentiation. Q8NER1. TRPV1-expressing cells, Fluo-8 calcium influx, capsaicin EC20 potentiation; host cell line not named in the record; control for the full effect not named in the record. potentiation, % at 8.33 µM. 320,000 compounds, 0.02% hits; active means potentiation above 80%; inconclusive means 30% to 80%; inactive means below 30%; further: 0% is about no effect
Target sequence (Q8NER1 whole entry, looked up): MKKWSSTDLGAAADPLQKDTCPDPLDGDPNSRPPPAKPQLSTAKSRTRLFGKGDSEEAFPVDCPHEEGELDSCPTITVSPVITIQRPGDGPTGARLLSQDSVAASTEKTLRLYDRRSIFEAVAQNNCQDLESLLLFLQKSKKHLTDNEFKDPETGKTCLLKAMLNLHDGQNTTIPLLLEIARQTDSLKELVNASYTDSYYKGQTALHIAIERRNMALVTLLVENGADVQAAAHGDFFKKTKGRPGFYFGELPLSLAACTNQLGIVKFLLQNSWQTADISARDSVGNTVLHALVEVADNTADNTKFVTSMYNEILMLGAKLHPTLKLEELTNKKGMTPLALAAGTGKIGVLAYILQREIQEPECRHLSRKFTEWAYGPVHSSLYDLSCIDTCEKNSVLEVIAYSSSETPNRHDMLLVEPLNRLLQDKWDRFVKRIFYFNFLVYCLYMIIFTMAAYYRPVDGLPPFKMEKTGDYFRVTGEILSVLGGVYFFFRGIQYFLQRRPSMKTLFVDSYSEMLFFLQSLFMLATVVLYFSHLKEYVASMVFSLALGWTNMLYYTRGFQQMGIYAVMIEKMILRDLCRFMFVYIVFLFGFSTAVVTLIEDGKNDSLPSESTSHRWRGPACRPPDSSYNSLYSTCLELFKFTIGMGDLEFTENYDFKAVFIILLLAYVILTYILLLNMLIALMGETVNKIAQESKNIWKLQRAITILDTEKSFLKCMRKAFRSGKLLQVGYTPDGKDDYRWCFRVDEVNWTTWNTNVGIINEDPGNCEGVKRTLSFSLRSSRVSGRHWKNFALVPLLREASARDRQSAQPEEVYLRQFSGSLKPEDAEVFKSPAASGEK
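Fluo-8 calcium influx in TRPV1-expressing cells, kinetic read (ex 480/em 520 nm). Compound added and read 3 min for agonist activity, followed by capsaicin at EC20 final and 2 min further read for enhancement.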
Menin MLL FP FL – menin-MLL binding inhibition, fluorescein peptide | AID 1766 | Fluorescence polarization, fluorescein-MLL peptide displacement from menin | 290,000 tested, under 10 active | FP activity change, % at 61.4 µM; inconclusive = falling polarisation curve, or a change in total fluorescence; inactive = total fluorescence flat and polarisation flat or rising; no compound was filed as active; the % refers to the polarisation; negative = inhibition;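 further: % of control where 0% means no effect; inhibitors lower the polarisation; unlabelled MLL peptide was the positive control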
Sfp PPTase inh – blocks B. subtilis Sfp PPTase activity. Q9F4F7. Biochemical Sfp PPTase activity, qHTS. Potency, µM, without a hit: max response, negative = inhibition, usual class: inhibitors. 310,000 compounds, 3.5% hits. AID 1490; active means well fitted inhibition curve with a large enough effect; inconclusive means small, poorly fitted or top-dose-only effect, or another doubt; inactive means no such curve, though single readings can be large or run the other way;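 further: the enzyme is Sfp with the accession as filed and its product quenches rhodamine fluorescence; potency means the concentration at half of the fitted maximal effect; 0% = enzyme reaction without inhibitor and -100% = no enzyme wells; top concentration of the series not given in the record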
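Step 1, compound plus 15 nM Sfp-PPTase, 15 min, room temperature. Step 2, add rhodamine-CoA (5 uM) and BHQ-2-YbbR (12.5 uM). Step 3, read 525/598 nm fluorescence at 0 and 30 min.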
* hit, by the source's call; ? = inconclusive; · = no result given; [ ] = remark or other dose. Rows are unselected (roughly 4.4% active in at least one column).

SMILES	TRPML1 blocker	PINK1 expr mod	TRPML1 agonist	ClpP mod	TRPV1 PAM	Menin MLL FP FL	Sfp PPTase inh
CC(NC(=O)COc1ccccc1)C1COc2ccccc2O1 (centres undefined)	-9.3	-4.1%	0.3	0.2%	·	·	·
Cc1c(Cl)cccc1NC(=O)CC(c1ccc(F)cc1)N1Cc2ccccc2C1=O (centres undefined)	18.0	3.6%	3.1	-2.5%	·	·	·
CCOC(=O)C1CCCN(C(=O)c2cc3cc(OC)c(OC)cc3[nH]2)C1 (centres undefined)	10.3	1.0%	-0.9	-1.3%	0.3	0.0	4.7%
CN(C(=O)CSc1ncnc2sccc12)c1c(N)n(Cc2ccccc2)c(=O)[nH]c1=O	-2.7	0.1%	0.7	0.2%	10.2	5.9	15.7%
C=CCC1NS(=O)(=O)O[C@H](CCCC)[C@@H]1O (some centres undefined)	-1.6	1.9%	-0.1	0.3%	-13.2	2.5	25.0%
O=C(O)c1ccc(C2SCC(=O)N2Cc2ccccc2)cc1 (centres undefined)	-17.1	2.0%	-1.2	?	6.5	7.3	19.6%
Cc1cc(=O)[nH]c2nnc(SCc3ccc(Cl)cc3)n12	2.0	23.4%	0.6	-6.2%	·	·	·
CC1=NN(c2ccccc2)C(=O)C1C(=O)c1ccccc1 (centres undefined)	3.2	3.9%	-0.4	-0.9%	10.1	2.3	-8.5%
COc1ccccc1NC(=O)C(=O)/C=C(\O)c1ccccc1	-7.5	1.0%	0.7	·	1.3	6.4	-7.4%
Cc1cc([N+](=O)[O-])nn1CC(=O)NC(C)c1ccccc1 (centres undefined)	-19.0	-0.4%	-0.4	-1.1%	2.2	-2.3	4.2%
Cc1nn(S(=O)(=O)c2cccs2)c(C)c1Sc1ccccc1	·	·	·	·	8.2	1.3	-1.5%
CCOc1ccc2c(c1)c(N=O)c(O)n2C	-1.0	0.6%	0.7	-3.3%	23.2	-0.8	7.4%
COc1cc(C2CC(=O)N(c3ccccc3)C3=C2C(=O)OC3)cc(OC)c1OC (centres undefined)	1.5	0.3%	0.4	0.5%	·	·	·
COc1cc(CCCN2C(N)=NC[C@@H]2c2ccccc2)cc(OC)c1OC	-11.6	0.9%	0.3	-0.1%	-19.3	0.8	17.3%
O=C(NC1CCCC1)C(c1cccs1)N(Cc1ccco1)C(=O)Cn1nnc(-c2cccs2)n1 (centres undefined)	-5.7	0.4%[38.3 µM]	1.8	-0.6%	6.6	4.8	2.5%
C/C(=N\NC(=O)CCCOc1ccc(Cl)cc1C)c1ccc(C)o1	-2.6	10.4%	0.1	-3.7%	-10.7	0.6	5.1%
O=C(Nc1ccc(-n2ccc(C(F)(F)F)n2)cc1)c1cccs1	14.1	7.6%	0.6	-1.1%	-16.9	·	2.9%
COc1ccc(Cl)cc1NC(=O)Nn1cnnc1	16.7	-5.1%[38.3 µM]	-0.4	-2.2%	2.3	-1.5	6.2%
CCOC(=O)c1ccc(N2C(=O)CC(Nc3ccc(O)cc3)C2=O)cc1 (centres undefined)	-7.6	-1.3%	-0.8	·	4.3	0.5	9.2%
COCCNC(=O)C1(C)CCN(C(=O)c2cc(C)n(C(C)(C)C)n2)C1 (centres undefined)	·	2.3%	-0.7	0.9%	·	·	·
COc1ccccc1/C=C/C=N/n1c(-c2n[nH]c3c2CCC3)n[nH]c1=S	-6.4	7.2%	-0.9	3.7%	·	0.9	22.4µM*
O=C(COC(=O)CC1SC(N2CCCC2)=NC1=O)Nc1ccc(Br)cc1 (centres undefined)	-2.8	0.2%	-0.8	1.5%	-21.0	·	·
N#Cc1ccc(OC(=O)c2cnccn2)cc1	-6.7	4.1%	0.0	·	-5.9	-3.9	-18.3%
COc1ccccc1-c1c(C)oc2c(CN3CCN(C)CC3)c(O)ccc2c1=O	-7.4	1.2%	0.0	27.2%	-3.0	5.4	5.2%
COc1cccc(NC(=O)CN2CCN(S(=O)(=O)c3ccc(C(C)C)cc3)CC2)c1	8.2	-1.4%	0.8	0.7%	1.6	0.4	-2.4%
O=C(NCC1CCCO1)C1CC1(c1ccccc1)c1ccccc1 (centres undefined)	-3.2	-1.1%	0.7	0.6%	-5.9	0.5	7.3%
COc1cccc(CC(Cc2nc3ccccc3[nH]2)c2nc3ccccc3[nH]2)c1 (centres undefined)	4.1	?	1.6	·	-24.1	5.4	-20.2%
C[C@H]1CCCCO[C@H](CN(C)CC2CCCCC2)[C@@H](C)CN([C@@H](C)CO)C(=O)c2cc(NS(=O)(=O)c3ccccc3)ccc2O1	25.2	-1.0%	-0.3	-2.5%	·	·	·
Cc1[nH]n(C(N)=S)c(=O)c1N=Nc1ccccc1C(F)(F)F	6.9	0.3%	1.4	2.7%	-0.3	6.3	?
CCN(CCN1CCCC1)C(=O)C1CCC(=O)N(CCCN2CCOCC2)C1 (centres undefined)	-2.5	1.8%	0.7	-3.0%	8.9	4.8	18.2%
CS(=O)(=O)c1ccc(C(=O)NNC(=O)c2ccccc2-n2cccc2)cc1	-1.1	1.8%	-0.1	0.8%	7.5	·	·
CC(C#N)Sc1ccc(S(=O)(=O)N2CCCCC2)cn1 (centres undefined)	-16.6	-2.0%	-0.2	-2.3%	-4.4	·	·
CCOc1ccc(/C=N/NC(=O)C(C)Sc2ccccn2)cc1OCC (centres undefined)	-1.5	1.2%	-1.2	·	13.4	3.3	5.5%
COc1ccc(Cn2nnnc2C(c2cc(OC)ccc2OC)N2CCC(C(N)=O)CC2)cc1 (centres undefined)	11.3	1.4%	0.0	1.2%	-3.7	0.0	5.8%
Cc1ccn2c(NC(=O)c3ccccc3)c(-c3cccs3)nc2c1	47.3	4.7%[38.3 µM]	-0.6	-1.4%	-2.9	0.5	11.7%
CCN(C(=O)CSc1n[nH]c(N)n1)c1cccc2ccccc12	-19.4	-1.1%	-0.2	-0.8%	·	·	·
CCC(c1nc2ccccc2[nH]1)N(C(=O)C1=NNC(=O)CC1)c1ccccc1 (centres undefined)	·	0.4%	-0.6	-0.9%	·	·	·
COc1ccc(C(=O)Nc2cccc(OCc3cc(=O)n4c5c(sc4n3)CCCC5)c2)cc1	-21.9	5.3%	0.4	-3.9%	·	·	·
Cc1ccc2nc(Cl)c(C3CC(c4ccco4)=NN3C(=O)CCCC(=O)O)cc2c1 (centres undefined)	10.6	-0.7%	0.3	·	1.1	3.8	7.4%
CCOC(=O)C12CNC(=O)C(C(=O)OCC)(CNC1=O)C2	5.0	0.4%	-0.4	-1.1%	-22.0	-1.1	0.1%
CCOC(=O)c1cnc(SCC(=O)Nc2ccc(NC(C)=O)c(OC)c2)nc1N	26.5	1.8%[38.3 µM]	0.6	-2.8%	4.2	-0.4	6.8%
S=C(NCCN1CCCCC1)Nc1ccc(Br)cc1	-11.0	4.4%	1.8	·	-10.1	-2.0	-1.7%
CN1CCN(c2nc3c(c(=O)[nH]c(=O)n3C)n2CCSc2nc3ccccc3s2)CC1	2.5	1.8%	0.0	0.0%	-12.9	3.2	20.6%
O=C(Nc1ccccc1)c1ccsc1	8.1	0.3%	0.2	-0.8%	-14.9	-1.8	14.2%
CCNc1nc(NCC)nc(N(C)/N=C/c2ccco2)n1	1.4	-1.9%	2.4	-0.2%	4.6	-1.2	-14.4%
CC1CCN(Cc2c(C(=O)O)nnn2-c2nonc2N)CC1	4.3	2.0%	-0.1	-2.2%	2.5	-3.3	18.4%
CC1(C)CC(=O)C=C(C(=O)N2CCCC(C(=O)c3cccc(Cl)c3)C2)O1 (centres undefined)	15.8	-0.1%	0.4	1.4%	-6.5	0.0	11.5%
Cc1ccc(C(CC(=O)Nc2cc(C)cc(C)c2)N2Cc3ccccc3C2=O)cc1 (centres undefined)	30.5	-3.9%	3.9	-1.6%	·	·	·
CC(C)[n+]1ccn(C2=C([O-])c3ccccc3C(=O)/C2=N\S(=O)(=O)c2ccccc2)c1	11.2	1.1%	0.8	·	19.5	1.3	-2.7%
O=C(NCc1ccco1)c1c[nH]c2ccc(S(=O)(=O)Nc3ccc(F)cc3F)cc2c1=O	9.0	-0.3%	8.9	?	·	·	·
C/C(=N\NC(=O)c1cccnc1)c1ccccc1	-18.9	-1.8%	-0.3	0.3%	12.4	0.2	7.0%
Cc1ccc(Cl)cc1N1CCN(Cc2nnc(-c3ccc4c(c3)OCO4)o2)CC1	23.5	-0.6%	-0.4	?	·	·	·
O=C(c1ccccc1F)N1CCCc2ccccc21	·	3.5%	·	0.5%	-4.5	-8.5	-1.5%
Cc1ccccc1S(=O)(=O)c1cc2ccccc2nc1N	-8.2	0.6%	0.1	·	6.0	0.6	0.4%
O=C(COc1ccccc1F)Nc1ccc(OCc2cc(=O)n3ccccc3n2)cc1	20.6	16.8%	3.1	-8.2%	·	·	·
CCCC(=O)Nc1ccc(NC(=O)C2CC2)cn1	-3.8	-0.9%	-0.4	-0.5%	4.7	-1.5	-1.7%
Cc1nn(-c2ccc(F)cc2)c(Cl)c1/C=C/C(=O)OCC(=O)Nc1c(F)c(F)c(F)c(F)c1F	-6.2	2.7%	0.4	·	4.3	4.7	2.8%
COc1ccc(OC)c(C2=NO[C@@H]3C(=O)N(c4cc(Cl)ccc4OC)C(=O)[C@H]23)c1	-9.3	-4.8%	1.1	49.1%	25.7	1.6	-2.1%
O=C(Nc1nnc(C2CC2)s1)C1Cc2ccccc2CN1S(=O)(=O)c1cccs1 (centres undefined)	-14.0	-2.0%	2.2	-1.5%	?	4.7	-19.9%
O=C(CCNS(=O)(=O)c1ccc(Br)cc1)NC1CCN(Cc2ccccc2)CC1	-5.9	0.4%	-0.5	-2.7%	5.3	·	7.0%
The list continues:
SMILES	TRPML1 blocker	PINK1 expr mod	TRPML1 agonist	ClpP mod	TRPV1 PAM	Menin MLL FP FL	Sfp PPTase inh
N#CC(c1ccc(Cl)cc1)c1ccc(Cl)nn1 (centres undefined)	45.9	0.3%	-0.1	0.3%	-10.3	-1.0	-8.3%
OCCN1CCN(c2cc(-c3ccc4ccccc4c3)nc3ccnn23)CC1	·	1.0%	-0.2	4.6%	·	·	·
COc1ccc(S(=O)(=O)N(C)C)cc1NC(=O)Cc1c[nH]c2ccccc12	-9.0	0.9%	0.6	·	13.1	2.1	10.5%
CCOc1ccc2nc(SCCNS(=O)(=O)c3ccccc3)sc2c1	3.1	5.3%	1.8	-0.6%	-6.5	0.9	20.0%
